Screening results as filed in PubChem BioAssay.
Marburg entry inh: blocks Marburg virus binding to or entry into cells; Potency, µM (titrated, usually from 37.8 µM), inactives show at the highest dose activity change, negative = inhibition, hits mostly inhibitors; AID 540276; hit rate 1.8% among 300,000; Marburg virus pseudotyped entry inhibition, cell reporter; control for the full effect not named in the record; about a third of the inactives were read at about 46 µM; active = well fitted inhibition curve with a large enough effect; inconclusive = small, poorly fitted or top-dose-only effect, or effect the other way; inactive = flat fitted curve, though single readings scatter; tested in HEK293 cells; about a fifth of its hits are not listed in these tables; further: on the % scale 0 is the no-effect control and ±100 the full control effect; luciferase read-out
RE007 growth inh: less growth of the S. pombe RE007 Vpr strain; hit rate 0.21% among 360,000; Potency, µM (top dose mostly 92.2 µM), without a hit: at the highest dose activity change, negative = less growth; S. pombe RE007 Vpr strain, BacTiter-Glo ATP luminescence, 24 h; control for the full effect not named in the record; active = well fitted falling curve with a large enough effect; inconclusive = small, poorly fitted or top-dose-only effect; inactive = no such curve, though single readings can be large or run the other way;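 further: on the % scale 0 is the no-effect control and ±100 the full control effect; nearly all actives have a fitted effect of over 50% in size; the assay follows cell death caused by Vpr and the record does not say whether a fall means rescue or toxicity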
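Fission yeast strain RE007, carrying one chromosomally integrated HIV-1 vpr copy, was seeded at OD 0.01 in PMG+AL medium with 23 nL pinned compound. After 24 h at 30 °C and 99% humidity, viability was read by BacTiter-Glo luminescence.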
Cruzain inh noDet: cruzain (T. cruzi) inhibition without detergent; P25779; Potency, µM, for the others: max response, negative = inhibition, hits mostly inhibitors; hit rate 2.3% among 200,000; purified cruzain, Z-FR-AMC fluorescence, no detergent;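 further: plate controls were enzyme without inhibitor for no effect and buffer without enzyme for full effect; nearly all actives have a fitted effect of over 40% in size; top concentration of the series not given in the record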
Target sequence (P25779 123-467 limits assumed): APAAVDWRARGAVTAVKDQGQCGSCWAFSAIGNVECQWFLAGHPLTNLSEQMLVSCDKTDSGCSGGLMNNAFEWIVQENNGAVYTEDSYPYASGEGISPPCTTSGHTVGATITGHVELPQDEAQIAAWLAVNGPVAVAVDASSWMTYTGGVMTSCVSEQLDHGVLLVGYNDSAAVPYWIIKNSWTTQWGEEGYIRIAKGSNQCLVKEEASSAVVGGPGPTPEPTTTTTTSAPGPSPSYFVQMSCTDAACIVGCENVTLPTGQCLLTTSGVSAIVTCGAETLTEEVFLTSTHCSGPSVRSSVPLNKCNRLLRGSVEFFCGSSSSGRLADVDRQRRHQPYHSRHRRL
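Detergent-free condition (0.00005% Triton X-100) in acetate buffer pH 5.5 with DTT. 1.5 nM enzyme and compound were pre-mixed 15 min, then 2 uM Z-FR-AMC substrate added; reaction progress from fluorescence change between first and third reads (60 s).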
NS1 function inh: influenza NS1 inhibition; Potency, µM (highest dose often 46.1 µM), for the others: top-dose activity, positive = more growth; hit rate 0.4% among 270,000; S. cerevisiae slowed by influenza A NS1, growth recovery by OD600; AID 2326; active means well fitted rising curve with a large enough effect; inconclusive means small, poorly fitted or top-dose-only effect; inactive means no such curve, though single readings can be large or run the other way; further: nearly all actives have a fitted effect of over 50% in size
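Growth recovery, yeast-based: influenza A NS1 expressed in S. cerevisiae causes slow growth, and suppressors are detected by OD600. The parent strain without NS1 is used as positive control.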
2A StopGo: lowers the luciferase signal of an FMDV 2A StopGo reporter; human cells with a luciferase reporter of 2A StopGo recoding; control for the full effect not named in the record; AID 1159524; hit rate 1.2% among 410,000; Potency, µM (highest dose often 57.9 µM), for inactives: top-dose signal change, negative = less light; active = well fitted falling curve with a large enough effect; inconclusive = small, poorly fitted or top-dose-only effect; inactive = no such curve, though single readings can be large or run the other way; tested in HEK293T cells; further: on the % scale 0 is the no-effect control and ±100 the full control effect; nearly all actives have a fitted effect of over 45% in size; luciferase light after 4 h
Cruzain inh Det: cruzain (T. cruzi) inhibition with detergent; hit rate 0.43% among 200,000; purified cruzain, Z-FR-AMC fluorescence, 0.01% Triton; Potency, µM, inactives show max response, negative = inhibition, hits mostly inhibitors; AID 1478; P25779;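 further: plate controls were neutral wells for no effect and buffer without enzyme for full effect; nearly all actives have a fitted effect of over 40% in size; top concentration of the series not given in the record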
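Compounds were screened in titration against cruzain (1.5 nM) with 0.01% Triton X-100 to counter colloidal aggregation. Activity was the AMC fluorescence increase over 60 s after adding 2 uM Z-FR-AMC at pH 5.5.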
SARS PLpro yeast: blocks SARS-CoV papain-like protease in a yeast assay | S. cerevisiae expressing SARS-CoV PLpro, growth rescue; control for the full effect not named in the record | Potency, µM (top dose mostly 32.9 µM), inactives show at the top dose activity, positive = growth rescue | hit rate 0.19% among 330,000; active means well fitted rising curve with a large enough effect; inconclusive means small, poorly fitted or top-dose-only effect; inactive means no such curve, though single readings can be large or run the other way; further: 0% is about no effect; nearly all actives have a fitted effect of over 55% in size; growth read by luminescence after 48 h
Lassa entry inh: Lassa virus entry inhibition. AID 540256. hit rate 1.2% among 300,000. Potency, µM (doses to about 37.9 µM), for the others: at the highest dose activity change, negative = inhibition, hits mostly inhibitors. Lassa virus pseudotype entry inhibition, cell reporter; control for the full effect not named in the record; active means well fitted inhibition curve with a large enough effect; inconclusive means small, poorly fitted or top-dose-only effect, or effect the other way; inactive means flat fitted curve, though single readings scatter; tested in HEK293 cells; further: on the % scale 0 is the no-effect control and ±100 the full control effect; nearly all actives have a fitted effect of over 50% in size; luciferase read-out
Active calls of the source: *; ? = inconclusive; . = no result given; [ ] = another dose, or the depositor's remark. Unless noted, the call rests on the fitted dose curve; in most records, active means well fitted curve in the direction sought with a large enough effect; inconclusive means small, poorly fitted or top-dose-only effect, or another doubt; inactive means no such curve, though single readings can be large; an effect the other way counts as inactive or inconclusive. Potency means the concentration at half of the fitted maximal effect.

mol | Cruzain inh noDet | Cruzain inh Det | Lassa entry inh | 2A StopGo | SARS PLpro yeast | NS1 function inh | RE007 growth inh | Marburg entry inh
OC(COCc1cccs1)CN1CCN(c2cccc(Cl)c2)CC1 (stereo unspecified) | 9% | 0.1% | ? | -23% | -17% | 2% | -4% | 18%
COc1ccc(S(=O)(=O)N2CCC(C(=O)NCc3ccccn3)CC2)cc1Cl | 16% | 0.3% | -5% | -15% | 5% | -9% | 3% | 4%
COc1cccc2c1cc1c(=O)n(CC(=O)NCc3ccc(C)o3)nc(C)n12 | 6% | -1.9% | . | -23% | . | . | . | 23%[46.1 µM]
Cc1ccc(CSCc2nnc(SCC(=O)N3CCN(c4ccccc4)CC3)n2C)cc1 | 29% | 6.9% | ? | -27% | 3% | -6% | 5% | ?
O=C1C(Br)=Cc2cccc3cccc1c23 | . | . | 14% | -9% | -2% | -3% | -12% | 31%
CCN(c1ccccc1)S(=O)(=O)c1ccc(C(C(=O)OC)C(=O)OC)c([N+](=O)[O-])c1 | . | . | -6% | 4% | 0% | . | -7% | 3%[46.1 µM]
CC(C)OCCCNc1ccc(N2C(=O)CCCC2=O)cc1[N+](=O)[O-] | . | . | . | -7% | 3% | 7% | 2% | .
CC1CC(C)CN(CCCNC(=O)CC2Oc3ccccc3NC2=O)C1 (stereo unspecified) | 7% | 0.5% | . | -3% | -10% | -11% | -5% | .
CCN(CC)c1ccc2cc(-c3nc(-c4cc5ccccc5oc4=O)cs3)c(=O)oc2c1 | . | . | 13% | 0% | . | . | -8% | 2%[46.1 µM]
CC(Oc1ccccc1)C(=O)Nc1ccc(C(N)=O)cc1 (stereo unspecified) | 11% | -2.0% | 29% | 23% | 1% | -21% | 3% | 8%
O=[N+]([O-])c1nn(-c2ccc3c(c2)OCCO3)n(O)c1=NCCC1=CCCCC1 | . | . | -2% | 24% | -1% | -4% | 25% | 13%
COC(=O)C(C)Sc1nnc(Cc2cc(=O)[nH]c(=O)[nH]2)n1-c1ccc(OC)cc1 (stereo unspecified) | 2% | 7.3% | . | -19% | -2% | -3% | 13% | .
CCOc1ccccc1-n1nnnc1SC(C)C(=O)OC (stereo unspecified) | . | . | -12% | -3% | 1% | -1% | -2% | 0%[46.1 µM]
COc1ccccc1C=NN=Cc1ccccc1O | . | . | ? | 17% | . | . | 8% | ?
CCCOc1cccc(C(=O)NCCCNC(=O)c2cccnc2)c1 | . | . | -12% | -19% | 11% | 4% | -3% | -15%
CCCCc1nnc(NC(=O)c2oc3ccccc3c2C)s1 | . | . | 22% | 59%[activator] | 3% | . | -22% | ?
CCOc1ccc(-c2nc3c(c(SCC(=O)Nc4ccccc4C)n2)Cc2ccccc2O3)cc1 | -8% | -4.1% | 13%[46.1 µM] | 0% | . | . | . | 6%[46.1 µM]
O=C(NCC1CCCO1)Nc1cccc(Cl)c1 (stereo unspecified) | -5% | 0.4% | -8% | 40%[activator] | -4% | -30% | -6% | ?
CCC1=Nc2cc(C(=O)NCCCOC(C)C)ccc2Sc2ccccc21 | ? | 1.2% | 6% | -7% | -2% | 9% | 9% | -14%
Cc1nc(SCc2c(F)cccc2Cl)n[nH]1 | -2% | 5.9% | -19%[14.3 µM] | 20% | 0% | -7% | 10% | 12%
c1c[nH]c(CN2CCN(Cc3ncc[nH]3)CC2)n1 | 13% | 3.2% | 9%[46.1 µM] | -9% | . | -10% | -7% | 18%
CN(CC(=O)Nc1cccc(S(=O)(=O)N2CCCC2)c1)CC(=O)Nc1ccc(F)c(F)c1F | . | . | ? | -21% | . | . | -13% | ?
O=C(O)CNS(=O)(=O)c1ccc(-c2ccccc2)cc1 | 1% | -1.1% | . | . | -1% | 14% | . | 1%
Cc1ccc(S(=O)(=O)Nc2cccc(C(=O)NCC(c3ccccc3)N(C)C)c2)cc1F (stereo unspecified) | . | . | ? | -22% | -2% | . | -27% | ?
COc1cccc(C(=O)N(Cc2ccc3c(c2)OCO3)Cc2nc3ccccc3c(=O)[nH]2)c1 | -9% | -6.1% | -4% | -6% | 1% | -14% | -1% | ?

Single records, from the list above.
Profile of Cc1ccc(S(=O)(=O)Nc2cccc(C(=O)NCC(c3ccccc3)N(C)C)c2)cc1F (stereo unspecified) → Cruzain inh noDet = .; Cruzain inh Det = .; Lassa entry inh = ?; 2A StopGo = -22%; SARS PLpro yeast = -2%; NS1 function inh = .; RE007 growth inh = -27%; Marburg entry inh = ?
Profile of COc1ccccc1C=NN=Cc1ccccc1O → Cruzain inh noDet = .; Cruzain inh Det = .; Lassa entry inh = ?; 2A StopGo = 17%; SARS PLpro yeast = .; NS1 function inh = .; RE007 growth inh = 8%; Marburg entry inh = ?

(further entries)
mol | Cruzain inh noDet | Cruzain inh Det | Lassa entry inh | 2A StopGo | SARS PLpro yeast | NS1 function inh | RE007 growth inh | Marburg entry inh
CCC(=O)N1CCc2cc(Br)cc(S(=O)(=O)NCCc3ccc(C)cc3)c21 | 2% | -3.6% | ? | 51%[activator] | . | . | . | .
CC(=O)N1CCCC1c1nc2ccccc2n1Cc1ccccc1F (stereo unspecified) | -1% | -7.5% | -18%[46.1 µM] | -8% | . | . | . | 3%[46.1 µM]
O=C(CCNC(=O)Cn1ccc2ccccc2c1=O)NCCN1CCc2ccccc2C1 | -16% | 1.7% | 5% | 6% | 2% | -10% | 5% | 5%
COc1ccc(OC)c(NC(=O)CSc2n[nH]c(-c3ccccc3Cl)n2)c1 | 3% | -1.2% | -17%[46.1 µM] | 0% | . | . | . | .
CCN(CC)S(=O)(=O)c1cc(NC(=O)C(C)N2CCc3ccccc32)ccc1C (stereo unspecified) | . | . | ? | -13% | 2% | . | 9% | ?
Cn1cc(Cl)c(C(=O)NC2CCCC2)n1 | 2% | 2.8% | . | -17% | 3% | 2% | 0% | .
Oc1ccccc1N=Nc1nc(-c2ccccc2)c(-c2ccccc2)[nH]1 | ? | -2.9% | 1.4µM* | 28µM* | -42% | -128% | 13% | 1µM*
CCc1nnc(NC(=O)CSc2nc3[nH]ncc3c(=O)[nH]2)s1 | . | . | 10% | -17% | 2% | . | 5% | ?
CCOc1ccc(NS(=O)(=O)c2ccc3[nH]cc(C(=O)N(C)Cc4ccccc4)c(=O)c3c2)cc1 | 1% | 0.0% | 17%[46.1 µM] | 25% | . | . | . | .
Cc1ccc(C(=O)Cn2nnc(-c3cccs3)n2)cc1 | . | . | . | 38%[activator] | 4% | -5% | 2% | .
Cc1nn(S(=O)(=O)c2ccccc2)c(C)c1Sc1ccc([N+](=O)[O-])cc1 | 3% | -1.0% | -13% | . | -8% | 24% | 3% | ?
O=C(CC(=O)N/N=C\c1ccc(F)cc1)NCCc1ccccc1 | . | . | 1% | -1% | 1% | 7% | -1% | 17%[46.1 µM]
C=CCC1S/C(=N/N=C/c2cccs2)NC1=O (stereo unspecified) | . | . | . | 5% | 1% | -3% | -5% | .
O=C(COc1ccc(Cl)cc1)Nc1ccc(-c2nc3ccccc3s2)c(O)c1 | 13% | 1.3% | 6%[46.1 µM] | ? | . | . | . | .
O=C(N/N=C/c1ccco1)c1cccc(S(=O)(=O)Nc2ccccc2Cl)c1 | 0% | -4.2% | 2% | 1% | 1% | 2% | -7% | 1%
COc1ccc(/C=C/C(=O)Nc2ccc(S(=O)(=O)Nc3onc(C)c3C)cc2)cc1OC | . | . | 3% | -15% | ? | -32% | -7% | ?
CNC(=O)CCCCC(=O)N/N=C/c1ccc(Cl)cc1Cl | . | . | . | 8% | 1% | 2% | -13% | .
O=C(Cn1cc(Cl)ccc1=O)c1ccc(Cl)cc1 | 11% | 0.9% | 7%[46.1 µM] | 30%[activator] | 4% | -1% | -5% | ?
O=C(CSc1nnc(-c2ccccc2)c(-c2ccccc2)n1)Nc1ncc(Cl)cc1Cl | 32µM* | -11% | 10% | -11% | -9% | 0% | 9% | 3%
CCCn1c(=O)c(C(=O)Nc2cccc(C)n2)c(O)c2ccccc21 | . | . | 11%[46.1 µM] | -1% | -2% | -20% | 8% | ?
CCOC(=O)c1c(C)[nH]c(C(=O)CSc2nnc(Nc3ccccc3F)s2)c1C | 13µM* | -4.3% | ? | -21% | 6% | ? | 1% | ?
N/C(=N\c1nc2ccccc2o1)NC(=O)c1ccccc1 | ? | -1.1% | -17% | 11% | -10% | -10% | -7% | 4%
COc1ccccc1CNC(=O)N1CCN(c2ccccc2)CC1 | . | . | 1% | 21% | 0% | -17% | 18% | -1%[46.1 µM]
COc1ccc(C2C=C(c3ccc(Cl)c(Cl)c3)Nc3ncnn32)cc1 (stereo unspecified) | ? | -5.1% | -2%[46.1 µM] | 27% | . | . | . | 10%[46.1 µM]
COc1ccccc1NC(=S)N/N=C/c1cccc(C)c1 | ? | -15% | ? | -11% | 5% | -6% | -11% | ?
O=C(CCc1ccccc1)Nc1cccc([N+](=O)[O-])c1 | . | . | 13%[46.1 µM] | -1% | -13% | . | -3% | 21%[46.1 µM]
O=C(CS(=O)(=O)Cc1ccccc1)N1CCc2ccccc21 | 4% | 2.4% | -6% | 45%[activator] | 0% | 9% | 12% | -5%

Part of the list above in order of molar mass, rising.
mol | Cruzain inh noDet | Cruzain inh Det | Lassa entry inh | 2A StopGo | SARS PLpro yeast | NS1 function inh | RE007 growth inh | Marburg entry inh
Cn1cc(Cl)c(C(=O)NC2CCCC2)n1 | 2% | 2.8% | . | -17% | 3% | 2% | 0% | .
O=C(CCc1ccccc1)Nc1cccc([N+](=O)[O-])c1 | . | . | 13%[46.1 µM] | -1% | -13% | . | -3% | 21%[46.1 µM]
Oc1ccccc1N=Nc1nc(-c2ccccc2)c(-c2ccccc2)[nH]1 | ? | -2.9% | 1.4µM* | 28µM* | -42% | -128% | 13% | 1µM*
COc1ccc(C2C=C(c3ccc(Cl)c(Cl)c3)Nc3ncnn32)cc1 (stereo unspecified) | ? | -5.1% | -2%[46.1 µM] | 27% | . | . | . | 10%[46.1 µM]
COc1ccc(OC)c(NC(=O)CSc2n[nH]c(-c3ccccc3Cl)n2)c1 | 3% | -1.2% | -17%[46.1 µM] | 0% | . | . | . | .
CCOC(=O)c1c(C)[nH]c(C(=O)CSc2nnc(Nc3ccccc3F)s2)c1C | 13µM* | -4.3% | ? | -21% | 6% | ? | 1% | ?
